Assay outcomes deposited in PubChem BioAssay by National Center for Advancing Translational Sciences (NCATS).
ClpP mod = qHTS Assay for Activators of ClpP | Potency, µM (titrated, usually from 57.5 µM), without a hit: at the top dose activity change, negative = active | AID 651965, 2013 | 340,000 tested, 1.9% active | ATP-dependent Clp protease proteolytic subunit (Bacillus subtilis (strain 168)), P80244 | purified B. subtilis ClpP, FRET peptide cleavage, 20 min; active = well fitted falling curve with a large enough effect; inconclusive = small, poorly fitted or top-dose-only effect; inactive = no such curve, though single readings can be large or run the other way; note: potency is the fitted concentration of half-maximal effect; the source files actives as falling curves though it sought activators and does not explain the sign; nearly all actives have a fitted effect of over 65% in size; many hits overshoot -100%
Target sequence (P80244 whole entry, looked up): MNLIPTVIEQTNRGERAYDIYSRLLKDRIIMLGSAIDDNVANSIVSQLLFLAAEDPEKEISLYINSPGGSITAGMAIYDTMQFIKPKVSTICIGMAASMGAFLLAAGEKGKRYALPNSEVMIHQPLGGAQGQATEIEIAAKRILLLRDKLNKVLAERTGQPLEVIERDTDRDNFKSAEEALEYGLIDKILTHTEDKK
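Purified B. subtilis ClpP, 10 microg/mL final in Tris/HCl pH8 with KCl, BSA, glycerol and Tween-20, cleaved an Abz/nitrotyrosine-quenched decapeptide. Fluorescence (ex 320, em 430) was read at 0 and 20 min at room temperature. Delta was normalized to 5.8 microM ADEP and DMSO/no-enzyme controls.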
TRPV1 PAM = HTS Assay for Compounds that Act as Potentiators of the Vanilloid Receptor 1; 320,000 tested, 0.02% active; Transient receptor potential cation channel subfamily V member 1 (Homo sapiens), Q8NER1; AID 540277, 2011; potentiation, % at 8.33 µM; TRPV1-expressing cells, Fluo-8 calcium influx, capsaicin EC20 potentiation; host cell line not named in the record; control for the full effect not named in the record; active means potentiation above 80%; inconclusive means 30% to 80%; inactive means below 30%; note: 0% is about no effect
Target sequence (Q8NER1 whole entry, looked up): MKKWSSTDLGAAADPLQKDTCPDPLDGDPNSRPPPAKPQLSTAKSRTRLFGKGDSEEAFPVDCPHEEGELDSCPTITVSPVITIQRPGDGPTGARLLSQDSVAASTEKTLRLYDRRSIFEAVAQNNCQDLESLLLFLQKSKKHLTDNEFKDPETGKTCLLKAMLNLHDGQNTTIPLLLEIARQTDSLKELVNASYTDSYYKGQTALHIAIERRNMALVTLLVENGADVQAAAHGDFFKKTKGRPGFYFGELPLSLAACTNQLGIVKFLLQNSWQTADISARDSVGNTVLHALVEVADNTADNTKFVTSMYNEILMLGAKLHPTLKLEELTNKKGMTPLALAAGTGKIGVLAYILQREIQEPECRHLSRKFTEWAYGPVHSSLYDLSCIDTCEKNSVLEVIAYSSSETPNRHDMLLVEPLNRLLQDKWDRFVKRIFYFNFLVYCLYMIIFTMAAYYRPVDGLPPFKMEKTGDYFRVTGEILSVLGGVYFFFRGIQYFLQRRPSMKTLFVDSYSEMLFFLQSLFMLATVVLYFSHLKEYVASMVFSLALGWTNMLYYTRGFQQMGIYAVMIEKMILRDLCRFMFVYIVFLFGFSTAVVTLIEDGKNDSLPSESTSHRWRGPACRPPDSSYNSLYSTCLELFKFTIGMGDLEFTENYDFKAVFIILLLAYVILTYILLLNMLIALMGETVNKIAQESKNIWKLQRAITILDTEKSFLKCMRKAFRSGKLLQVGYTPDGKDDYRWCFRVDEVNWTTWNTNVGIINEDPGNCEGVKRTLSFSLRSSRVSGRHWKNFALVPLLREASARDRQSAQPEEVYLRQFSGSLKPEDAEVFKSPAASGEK
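Fluo-8 calcium influx in TRPV1-expressing cells, kinetic read (ex 480/em 520 nm). Compound added and read 3 min for agonist activity, followed by capsaicin at EC20 final and 2 min further read for enhancement.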
TRPML1 ag = qHTS for Agonists of the Human Mucolipin Transient Receptor Potential 1 (TRPML1). 410,000 tested, 0.12% active. activation, % (concentration not given with the values). TRPML1-expressing cells, Ca2+ dye fluorescence, FDSS; host cell line not named in the record; reference of the full effect not given here. Mucolipin-1 (Homo sapiens), Q9GZU1; in the data active = activation above about 50%; inconclusive = about 30% to 50%; inactive = below about 30%; note: 0% is about no effect; the text of the record puts the active cut at 80%
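Kinetic FDSS Ca2+ read in Tet-induced TRPML1-DL cells (ABD Ca8 dye plus quencher, 45-90 min RT loading): baseline, then compound, then 110 s agonist window; EC80 agonist 54-4 at 4uM final added afterwards for a 110 s antagonist window.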
TRPML1 inh = qHTS for Inhibitors of the Human Mucolipin Transient Receptor Potential 1 (TRPML1) | TRPML1-inducible cells, Ca2+ dye fluorescence, FDSS; hits give low values; inhibition of EC80 agonist-evoked calcium signal | activity change, negative = inhibition, % (test concentration not listed) | 390,000 tested, 0.02% active | AID 624415, 2012; in the data active means activity change below about -50%; inconclusive means about -30% to -50%; inactive means above about -30%;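 note: stimulus is agonist 54-4 at its EC80 concentration; % is set by controls: 0 for no effect and ±100 for the full control effect; compound concentration not given in the record; the text of the record puts the active cut at -80%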
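Tet-induced TRPML1-DL cells loaded with Ca8 no-wash calcium dye were read kinetically on FDSS. Compound addition was followed by EC80 agonist 54-4 (4 uM final); inhibition was read over 110 s.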
PINK1 expr mod = A Quantitative High throughput Screen to Identify Chemical Modulators of PINK1 Expression | AID 624263, 2012 | Potency, µM (titrated, usually from 76.6 µM), inactives show at the highest dose activation (PINK1 increase), actives largely listed as activators | 410,000 tested, 0.2% active | PINK1 immunofluorescence, high-content cytometry, 24 h; active = well fitted activation curve with a large enough effect; inconclusive = small, poorly fitted or top-dose-only effect; inactive = flat fitted curve, though single readings scatter; cell line not stated here;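 note: potency is the fitted concentration of half-maximal effect; % of control where 0% means no effect; nearly all actives have a fitted effect of over 65% in size; a mitochondrial uncoupler was the plate control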
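Fluorescence from anti-PINK1 antibody, together with nuclear and cell stains, was scanned on a laser-scanning cytometer. Before staining, stable-line cells were incubated 24 hours with compounds at 5 concentrations; primary antibody 12 h at 10 degrees C.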
Sfp PPTase inh = qHTS Assay for Inhibitors of Bacillus subtilis Sfp phosphopantetheinyl transferase (PPTase); 4'-phosphopantetheinyl transferase ffp (Bacillus subtilis), Q9F4F7; AID 1490, 2009; Biochemical Sfp PPTase activity, qHTS; 310,000 tested, 3.5% active; Potency, µM, for the others: max response, negative = inhibition, actives largely listed as inhibitors; active = well fitted inhibition curve with a large enough effect; inconclusive = small, poorly fitted or top-dose-only effect, or another doubt; inactive = no such curve, though single readings can be large or run the other way;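 note: the enzyme is Sfp with the accession as filed and its product quenches rhodamine fluorescence; potency is the fitted concentration of half-maximal effect; 0% = enzyme reaction without inhibitor and -100% = no enzyme wells; top concentration of the series not given in the record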
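Reaction rates are the 30-min fluorescence difference (ex 525, em 598 nm) in wells containing 15 nM Sfp, 5 uM rhodamine-CoA and 12.5 uM BHQ-2-YbbR at pH 7.6 with 10 mM MgCl2.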
Menin-MLL FL inh = qHTS Assay for Inhibitors Targeting the Menin-MLL Interaction in MLL Related Leukemias: Competition With Fluorescein Labeled MLL-derived Peptide. Fluorescence polarization, fluorescein-MLL peptide displacement from menin. FP activity change, % at 61.4 µM. 290,000 tested, under 10 active. AID 1766, 2009; inconclusive = falling polarisation curve, or a change in total fluorescence; inactive = total fluorescence flat and polarisation flat or rising; no compound was filed as active; the % refers to the polarisation; negative = inhibition;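 note: % of control where 0% means no effect; inhibitors lower the polarisation; unlabelled MLL peptide was the positive control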
Active calls of the source: *; ? = inconclusive; . = no result given; & = joins results of further samples; [ ] = remark or other dose.

Order of values: ClpP mod | TRPV1 PAM | TRPML1 ag | TRPML1 inh | PINK1 expr mod | Sfp PPTase inh | Menin-MLL FL inh
Cc1ccc(N(CC(O)CN2CCOCC2)S(=O)(=O)c2ccc([N+](=O)[O-])cc2)cc1 (centres undefined)
  -2.8% | 5 | 0.1 | 6 | -0.4% | 15% | -25
COc1ccc(/C=N/N=C/c2c[nH]c(=O)c(C#N)c2Nc2ccccc2)cc1
  -2.0% | 2 | 0.8 | 19 | 8.5% | ? | 6.0
CCOC(=O)C1(CCCc2ccccc2)CCN(C(=O)c2cncs2)CC1
  -2.1% | -15 | -0.4 | 5 | 1.3% | 11% | -1.3
Cc1ccc(-c2ccc(=O)n(CCC(=O)NCc3ccccn3)n2)cc1
  -24% | -3 | 1.5 | 17 | -0.2% | -5% | 2.3
NC(c1csc(Nc2ccc(C(=O)c3ccccc3)cc2)n1)c1ccccc1Cl (centres undefined)
  -14% | . | -0.7 | . | 1.1% | . | .
Cc1ccc([C@H]2N[C@]3(CCCN(Cc4ccc(C(F)(F)F)cc4)C3=O)[C@H]3C(=O)N(Cc4ccccc4)C(=O)[C@@H]23)cc1
  2.0% | . | 1.3 | 15 | 1.9% | . | .
COCCn1c(=O)c(-c2cccc(C#N)c2)nc2cnc(Oc3cccc(Cl)c3)nc21
  . | . | . | . | 3.8% | 13% | 0.0
CN(c1ccccc1)S(=O)(=O)c1ccc(Cl)c(C(=O)OCC(N)=O)c1
  . | -2 | 3.6 | 5 | -0.7% | 9% | -1.5
CC(C)(C)CC(C)(C)NCC(=O)Nc1c2c(nc3ccccc13)CCC2
  -2.0% | 0 | 0.7 | 0 | 2.4% | -12% | -19
CC1OC(CCc2cccc(Cl)c2)Cc2[nH][nH]c(=O)c21 (centres undefined)
  2.6% | . | -0.6 | . | 2.0% | . | .
CCOC(=O)c1c(S(=O)(=O)NCCc2ccccc2)c(C)n(C)c1C
  -2.1% | 4 | 0.7 | 33 | 6.5% | 13% | -0.5
O=C(CNC(=O)c1ccc(Cl)cc1Cl)OC1CCCCC1=O (centres undefined)
  -1.5% | . | 0.4 | -10 | 1.5% | . | .
O=C(CCCc1ccccc1)Nc1cccc2c1CCCC2
  1.1% | -25 | 0.5 | 7 | 12% | 11% | 1.3
Fc1ccc(CNc2cc(-c3ccccc3)nc3nncn23)cc1
  ? | . | 1.8 | 42 | 1.0% | . | .
CC(=O)Nc1cccc(NC(=O)CSc2ncc(C(=O)Nc3ccccc3)c(=O)n2C)c1
  . | 3 | -0.2 | -5 | 4.1% | . | .
Cc1ccc2nc(CSc3nc(C)ccc3C#N)[nH]c2c1
  75% | -8 | 0.6 | 45 | 4.9%[38.3 µM] | -15% | -0.7
Cc1ccc2c(c1)C(=O)OC(C(=O)Nc1ccccc1C(=O)O)C2 (centres undefined)
  -3.7% | . | 1.5 | 3 | 1.9% | . | .
CCN(CC)c1ccc(NC(=O)c2c(OC)cccc2OC)c(C)c1
  -1.1% | -19 | 1.5 | -6 | -0.8% | -4% | 1.1
CC1(C)Cc2cccc(C(=O)NCc3ccco3)c2O1
  . | 2 | 0.2 | -1 | 0.0% | -16% | 6.7
CCn1cc(S(=O)(=O)c2ccc(C)cc2)c(=O)c2cc(OC)ccc21
  3.7% | 6 | -0.8 | 0 | 0.3% | 12% | .
COc1cccc(C2CC(c3c(F)cccc3Cl)n3nc(N)nc3N2)c1 (centres undefined)
  1.6% | 0 | 2.5 | 13 | -1.0% | 12% | 0.2
Nc1ccc(S(=O)(=O)NCC2CCCCO2)cc1 (centres undefined)
  . | . | 0.9 | -17 | 3.2% | . | .
CC(Oc1ccc(Cl)cc1)c1ccn[nH]1 (centres undefined)
  . | 5 | 2.0 | -6 | -1.8% | -11% | -3.3
COc1ccc2c(c1)OC[C@H]1[C@@H]2N2C(=O)CNC(=O)[C@@]2(C)[C@H]1c1ccccc1
  -2.4% | -3 | -0.2 | -23 | 1.7% | . | .
COc1ccc(Br)cc1C1C(C(=O)Nc2ccc(C)cc2C)=C(C)Nc2ncnn21 (centres undefined)
  -3.9% | . | -0.3 | -7 | -0.3% | . | .
O=Cc1ccc(C(=O)OCC(=O)N2CCCC2)cc1
  0.5% | -3 | -0.4 | 19 | 1.2% | 5% | 0.1
COc1ccc(C(=O)Nn2c(SCC(=O)c3ccc(Cl)cc3)nc3ccccc3c2=O)cc1
  -2.5% | 10 | -0.3 | -15 | 1.6%[38.3 µM] | 12% | -0.4
Cc1cc([N+](=O)[O-])ccc1NC(=O)CSc1nccc(=O)[nH]1
  . | -1 | 0.1 | 13 | -0.8% | 13% | -2.5
Cc1cc(SCc2cccc(Cl)c2)nc(=O)[nH]1
  -3.5% | -4 | 0.1 | 6 | -0.6% | -1% | 1.3
O=C(c1ccccc1NS(=O)(=O)c1ccc2c(c1)OCCO2)N1CCOCC1
  -0.4% | -7 | -0.1 | 7 | 0.9%[38.3 µM] | -13% | 2.1
Cc1cc2c(cc1C)NC(CC(=O)Nc1ccccc1)C(=O)N2 (centres undefined)
  4.0% | . | -0.5 | 1 | 5.8% | . | .
CCCCCn1c(=O)[nH]c2cc(C(=O)NCc3ccc(Cl)cc3)ccc2c1=O
  -2.2% | . | 0.5 | -7 | 0.8% | . | .
O=C(Nc1cccc(F)c1)c1ccc(Br)o1
  -1.3% | 9 | -0.6 | -11 | 1.6% | -22%&-9% | -5.5[94.6 µM]
COc1ccc(OC)c2c1CCC1(C2)NC(=O)NC1=O (centres undefined)
  -2.8% | . | -0.7 | . | 1.3% | . | .
Cc1ccc(C(=O)OC(C)C(=O)N(C)C2CCCCC2)cc1S(=O)(=O)N1CCCCC1 (centres undefined)
  -0.5% | -10 | -2.0 | -7 | 1.0% | . | .
CCCCCCCCS(=O)c1sc2nc3c(cc2c1N)CCCC3 (centres undefined)
  -15% | . | 1.3 | 9 | 2.1% | . | .
CC(C)c1ccc(C2C3=C(CC(c4ccco4)CC3=O)Nc3nc(C(F)(F)F)nn32)cc1 (centres undefined)
  . | 5 | 2.1 | 16 | -0.7% | . | .
CCS(=O)(=O)N1CCc2cc(C(=O)NCCc3ccc(OC)c(OC)c3)ccc21
  -6.5% | . | -0.5 | -3 | -0.1% | . | .
CC(C)(C)C1CCC(=NNC(=O)c2ccc(Br)o2)CC1 (centres undefined)
  0.0% | 10 | -0.5 | 3 | 1.4% | 3% | 4.6
COc1ccc(CC(=O)NCCc2ccc3c(c2)OCO3)cc1OC
  -4.8% | . | -0.9 | 18 | 3.6% | . | .
CCn1c(CC(=O)Nc2ccccc2F)nnc1SCC(=O)Nc1nncs1
  -4.6% | -1 | -0.1 | 10 | -2.3% | 15% | 2.1
COC(=O)N1CCC2(CCCN(C(=O)Nc3cccc(F)c3)C2)CC1
  . | . | . | . | -0.9% | 13% | 0.2
COc1cccc(C(=O)CSc2nnc(CNc3nc(-c4ccccc4)cs3)n2C)c1
  -2.7% | ? | 2.2 | 16 | -1.8% | -3% | 0.2
CCc1nn(CC(=O)NC(C)CCc2ccccc2)c(=O)c2cc3cc(F)ccc3n12 (centres undefined)
  -18%&-6.7% | 4 | 1.3&-0.4 | -2&-22 | 5.0%&2.1% | 2% | 4.3
CS(=O)(=O)Nc1cccc(-c2nc(N3CCOCC3)c3ccccc3n2)c1
  . | . | . | . | -1.6% | 25% | 3.0
COc1ccc(N=C2NC(=O)CS2)c([N+](=O)[O-])c1
  0.6% | 2 | 1.9 | 0 | -0.3% | 9% | -2.9
COc1ccc2c(c1)N(C)/C(=C1/SC(=S)N(NC(C)=O)C1=O)S2
  -0.7% | 1 | 0.0 | -20 | 15% | -13% | ?
Cc1ccc(C)c(NC(=O)Cn2cnc3c(oc4ccccc43)c2=O)c1
  0.4% | ? | -0.9&-0.9 | -4&0 | 3.0%&1.2% | 2% | -3.5
COc1cccc(-n2cnnc2SC(C)C(=O)NC2CCCC2)c1 (centres undefined)
  -0.4% | -20 | -0.3 | 8 | 3.2% | . | .
Cc1ccc(NS(=O)(=O)c2ccc3c(c2)CCN3C(=O)CCC(=O)O)cc1Cl
  -2.1% | 20 | 1.8 | -9 | -1.3% | 11% | -20
Cc1cccc(N2CCN(C(=O)CSCc3c(C)noc3C)CC2)c1C
  -2.2% | -17 | 0.1 | -11 | 2.4% | -6% | -0.2

Look-ups from the list:
TRPV1 PAM with Cc1ccc(C(=O)OC(C)C(=O)N(C)C2CCCCC2)cc1S(=O)(=O)N1CCCCC1 (centres undefined) → -10
ClpP mod with Cc1cccc(N2CCN(C(=O)CSCc3c(C)noc3C)CC2)c1C → -2.2%
TRPML1 ag with COc1ccc(N=C2NC(=O)CS2)c([N+](=O)[O-])c1 → 1.9

An excerpt taken from the entries so far, as a working copy:
Order of values: ClpP mod | TRPV1 PAM | TRPML1 ag | TRPML1 inh | PINK1 expr mod | Sfp PPTase inh | Menin-MLL FL inh
COc1cccc(-n2cnnc2SC(C)C(=O)NC2CCCC2)c1 (centres undefined)
  -0.4% | -20 | -0.3 | 8 | 3.2% | . | .
Cc1ccc(NS(=O)(=O)c2ccc3c(c2)CCN3C(=O)CCC(=O)O)cc1Cl
  -2.1% | 20 | 1.8 | -9 | -1.3% | 11% | -20
Cc1cccc(N2CCN(C(=O)CSCc3c(C)noc3C)CC2)c1C
  -2.2% | -17 | 0.1 | -11 | 2.4% | -6% | -0.2
